RecA splice inh = Mtb RecA intein splicing inhibition | 290,000 tested, 0.75% active | inhibition, %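 (about 9 µM by stock and volumes)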 | cell-free RecA intein splicing, fluorescence | AID 2221; in the data active = inhibition above about 30%; inconclusive = no clear call, values can overlap the other calls;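 also: 0% = vehicle wells and 100% = reference inhibitor control wells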
Target sequence (P9WHJ3 whole entry, looked up, canonical isoform): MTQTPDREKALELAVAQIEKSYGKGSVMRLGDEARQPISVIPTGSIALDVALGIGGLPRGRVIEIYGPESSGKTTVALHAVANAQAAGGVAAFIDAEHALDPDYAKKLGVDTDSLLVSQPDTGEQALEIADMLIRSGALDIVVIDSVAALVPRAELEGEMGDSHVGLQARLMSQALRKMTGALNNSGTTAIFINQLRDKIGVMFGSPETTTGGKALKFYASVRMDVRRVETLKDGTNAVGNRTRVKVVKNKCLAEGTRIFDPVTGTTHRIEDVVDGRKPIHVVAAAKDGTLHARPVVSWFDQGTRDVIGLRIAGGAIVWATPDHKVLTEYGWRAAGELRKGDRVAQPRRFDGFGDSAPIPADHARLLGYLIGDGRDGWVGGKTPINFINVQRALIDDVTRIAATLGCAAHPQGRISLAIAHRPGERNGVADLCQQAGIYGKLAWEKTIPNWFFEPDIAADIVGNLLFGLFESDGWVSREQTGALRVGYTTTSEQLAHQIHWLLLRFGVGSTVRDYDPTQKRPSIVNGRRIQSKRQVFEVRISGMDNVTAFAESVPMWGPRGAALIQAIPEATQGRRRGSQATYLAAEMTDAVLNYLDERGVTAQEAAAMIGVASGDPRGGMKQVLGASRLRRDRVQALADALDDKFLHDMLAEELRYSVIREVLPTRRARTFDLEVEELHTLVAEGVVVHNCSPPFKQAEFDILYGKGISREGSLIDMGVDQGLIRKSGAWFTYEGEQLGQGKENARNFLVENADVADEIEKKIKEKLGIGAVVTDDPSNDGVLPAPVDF
Mtb betalactam = beta-lactam sensitization of Mtb H37Rv | inhibition, % at 25 µM | AID 434955 | M. tuberculosis H37Rv growth with meropenem, percent inhibition; hits of this screen are not shown here | 330,000 tested, 0.27% active;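 active = about 74% or more and at least 40 points above the plate without the antibiotic, then above 30% in a dose series; inconclusive = first-round hits that could not be retested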;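 also: growth measured after seven days incubation then overnight dye step; 0% = bacteria only wells and 100% = bacteria with antibiotic; twin plates without the antibiotic show which effects depend on it; some results filed as inactive read as strong as hits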
YopH inh = inhibitors of Yersinia enterocolitica YopH tyrosine phosphatase | fluorescence Ex485/Em525 | inhibition, %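 (about 10 µM by stock and volumes)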 | 140,000 tested, 0.16% active;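 active = inhibition of 50% or more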;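 also: controls were vehicle for no effect and minimum signal wells for full effect; inactives centre near -20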
Mtb growth = M. tuberculosis H37Rv growth inhibitors, H37Rv strain (AID 1626); M. tuberculosis H37Rv growth inhibition; higher % means a stronger effect; one-dose inhibition, % at 10 µM; IC50 in µM for titrated hits; 220,000 tested, 0.95% active;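 active = confirmed in a dose series; inconclusive = inhibition above 80% but not taken into the dose series; inactive = below 80% or under 30% at every dose of the series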;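 also: bacteria incubated seven days before Alamar blue readout; 0% = bacteria only wells and 100% = bacteria with antibiotic wells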
Arbovirus inh = arbovirus infection inhibition; AID 1251; 200,000 tested, 0.37% active; arbovirus infection cell-based antiviral screen; inhibition, % at 10 µM;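 active = inhibition from about 30%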;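 also: bluetongue infection of BSR cells; cell survival read as ATP light after 72 h; 0% = infected wells without compound and 100% = uninfected wells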
Arbovirus inh repeat = recorded beside Arbovirus inh, whose call it bears; inhibition, %; measured here: 10K subset replicate screen; many hits read low in the repeat;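 first of two repeat runs on a subset; 0% = infected and 100% = uninfected wells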
* hit, by the source's call; ? = inconclusive; . = no result given. These rows are one share of the data; count on the stated rates, not on these rows.

SMILES | RecA splice inh | Mtb betalactam | YopH inh | Mtb growth | Arbovirus inh | others
CC1Cc2cc(S(=O)(=O)N3CCC(C(=O)NCc4ccco4)CC3)ccc2N1C(=O)C1CCC1 (stereo not drawn) | 0.8 | 3 | . | . | .
COc1ccc(OCC(=O)NNc2nc3ccccc3s2)cc1 | 0.1 | 65 | . | ? | .
O=C(c1cccs1)n1nc(NCc2ccccc2)nc1NCc1ccccc1 | -20 | -1 | -29 | -4% | -1
CCOC(=O)c1c(-c2ccccc2)csc1NC(=O)C(C)NCCCN1CCOCC1 (stereo not drawn) | 0.9 | 2 | . | -1% | -22
Cc1ccc(CNC(=O)c2ccc(CNS(=O)(=O)c3ccc4c(c3)C(C)(C)C(=O)N4C)cc2)o1 | -4.9 | -4 | . | . | .
CN(C)C(=C(C#N)C#N)N1CCN(c2ccc(Cl)c(Cl)c2)CC1 | -0.2 | 0 | -28 | 2% | -3
CCCOc1ccc(C(=O)N/N=C/c2c[nH]c3ccc(Br)cc23)cc1 | 0.6 | 1 | . | . | .
O=C(NCc1cccs1)c1ccc2ccccc2n1 | . | -2 | . | 5% | -3
CC(O)CNc1nc2c(c(=O)n(C)c(=O)n2C)n1CCc1ccccc1 (stereo not drawn) | 0.0 | 4 | -11 | 6% | 4
Cn1cnnc1SCc1nnc(-c2ccccc2Br)o1 | -0.2 | 6 | . | -9% | 17
CCn1c(CC(=O)Nc2ccc(F)cc2)nnc1SCC(=O)NC1=NCCS1 | 1.2 | 3 | . | . | .
CCOc1ccc(CN2CCN(Cc3cnc(N4CCOCC4)s3)CC2CCO)cc1 (stereo not drawn) | -2.9 | -1 | . | -2% | -11
CCCn1c(=O)[nH]c(=O)c2c1nc(-c1ccccc1)n2CCN1CCOCC1 | . | -4 | -21 | -6% | 5
CCN(CC)c1ccc(C2CC(=O)NC3=C2C(=O)CC(C)(C)C3)cc1 (stereo not drawn) | -0.8 | -16 | -10 | 5% | -8
O=C(C1CCOCC1)N1CCCC(N2CCN(c3cccc(C(F)(F)F)c3)CC2)C1 (stereo not drawn) | -0.7 | -4 | . | . | .
COc1ccc(Cl)cc1NC(=O)NCC1CCN(C(=O)OC(C)(C)C)CC1 | 0.4 | 4 | . | 12% | .
C=CCOc1cccc(C(=O)/C=C2/C(=O)Nc3ccccc32)c1 | 4.2 | 94 | . | . | .
Cc1ccc(NC(=O)c2cc([N+](=O)[O-])ccc2N2CCOCC2)cc1S(=O)(=O)N1CCOCC1 | 1.4 | -8 | . | . | .
O=C(O)C1C2C=CC(O2)C1C(=O)Nc1ccccc1C(F)(F)F (stereo not drawn) | 0.1 | -5 | -19 | -8% | 2
Cc1n[nH]c(C)c1CNCc1c(C(=O)N2CCCCCCC2)nc2ccc(Cl)cn12 | 0.5 | -6 | . | -7% | .
COc1ccc(C(C(=O)NC2CCCC2)N(CCC(C)C)C(=O)CCC(=O)Nc2cc(C)on2)cc1 (stereo not drawn) | -0.1 | -6 | . | . | .
C=CCSc1nnc(-c2ccccc2NC(=O)CC)c(=O)[nH]1 | -1.1 | -6 | -3 | 9% | 10
C=CCN=C(NC#N)SCC(=O)c1cccc(OC)c1 | -0.9 | 21 | -88 | -7% | 9
CCN(CC)CCCN=Cc1c(-c2ccccc2)[nH]n(-c2nc3ccccc3s2)c1=O | 2.5 | 2 | . | -6% | .
O=C(CCn1c(=S)[nH]c2cc3c(cc2c1=O)OCO3)N1CCc2ccccc2C1 | 1.0 | 5 | -27 | . | 5
COc1cc(NC(=O)C(c2ccccc2)c2ccccc2)c(C(=O)O)cc1OC | -1.8 | 7 | . | . | .
Cc1nn(-c2ccc(Cl)cc2)c(=O)c2ccccc12 | 4.9 | -4 | . | 8% | 6
Cc1sc(NC(=O)CN2CCCC2)nc1-c1ccc2c(c1)CCN2C(=O)c1cccc(F)c1 | 3.2 | 7 | . | . | .
CC(O)(CS(=O)(=O)c1cccc(C(F)(F)F)c1)C(=O)Nc1cccc(C(F)(F)F)c1 (stereo not drawn) | -2.0 | -5 | -25 | 4% | -2
CN1/C(=C\C(=O)CSc2nnc(NCc3ccccc3)s2)C(C)(C)c2ccccc21 | 3.7 | 3 | -2 | 11% | -12
O=C(NC(NC1CCS(=O)(=O)C1)C(Cl)(Cl)Cl)c1cccc(Cl)c1 (stereo not drawn) | -1.1 | -8 | -11 | -6% | 12
Cc1ccc(-c2cnc3cc(C)nn3c2)cc1 | 1.4 | -3 | . | 10% | -3
Cc1cc(C(=O)CN2CCCC2)c(C)n1-c1ccc(Cl)cc1 | 3.2 | -2 | . | -6% | 4
CCOc1ccc(NS(=O)(=O)c2cc(C(=O)N3CCN(C(C)=O)CC3)ccc2Cl)cc1 | -4.6 | -13 | . | . | .
Oc1c(C(c2ccccn2)N2CCCCC2)cc(Cl)c2cccnc12 (stereo not drawn) | 10 | 27 | . | 3% | -20
C/C(N)=C(/C#N)C(=O)COC(=O)COc1ccc(Cl)cc1C | 0.2 | -6 | -5 | -6% | 11
COC(=O)c1ccc(COc2ccccc2/C=C(\C#N)C(=O)Nc2ccccc2C)cc1 | -8.0 | -5 | -24 | 2% | 1
N#CC(=C=[N-])/C=C(\C(=O)c1ccccc1)[n+]1ccccc1 | 0.0 | -10 | . | 4% | .
CCOC(=O)N1CCC(C(N)=O)CC1 | -0.1 | -6 | -1 | 2% | 0
Cc1cc2c(cc1S(=O)(=O)Nc1ccc(F)cc1)n(C)c(=O)c(=O)n2C | -1.1 | 0 | . | . | .
O=C(N/N=C/c1ccc(C(=O)O)cc1)C1=NNC(c2ccccc2)(c2ccccc2)C1 | 2.7 | 8 | . | 4% | 3
COC(=O)Cc1c[nH]c2cccc(OCC(O)CN(Cc3ccc([N+](=O)[O-])cc3)C(C)(C)C)c12 (stereo not drawn) | 3.8 | 1 | -8 | -2% | -12
COc1ccc(N(C(=O)c2ccco2)C(C(=O)NC2CCCC2)c2cccs2)cc1 (stereo not drawn) | 12 | -3 | . | -11% | -13
CC1(C)CC(=O)C2=C(C1)Nc1cc(Cl)ccc1S2 | -2.9 | -4 | . | 2% | .
Nc1nc(Br)c2c(F)cccc2c1-c1ccc(Cl)cc1 | -4.4 | -6 | -45 | 1% | 4
CN(C)c1ccc(C(CNS(=O)(=O)c2ccc3ccccc3c2)N2CCOCC2)cc1 (stereo not drawn) | -1.4 | -6 | . | . | .
Nc1nc2ccccc2n1/N=C/c1ccc2c(c1)OCO2 | 1.6 | 68 | . | -2% | .
CCOc1ccc(NC(=S)NC(C)C(c2ccccc2)N2CCN(C)CC2)cc1 (stereo not drawn) | -8.8 | 1 | . | 4% | 2

Grouped by structure, the compounds so far with a CF3 group
SMILES | RecA splice inh | Mtb betalactam | YopH inh | Mtb growth | Arbovirus inh | others
O=C(C1CCOCC1)N1CCCC(N2CCN(c3cccc(C(F)(F)F)c3)CC2)C1 (stereo not drawn) | -0.7 | -4 | . | . | .
O=C(O)C1C2C=CC(O2)C1C(=O)Nc1ccccc1C(F)(F)F (stereo not drawn) | 0.1 | -5 | -19 | -8% | 2
CC(O)(CS(=O)(=O)c1cccc(C(F)(F)F)c1)C(=O)Nc1cccc(C(F)(F)F)c1 (stereo not drawn) | -2.0 | -5 | -25 | 4% | -2

New compounds follow
SMILES | RecA splice inh | Mtb betalactam | YopH inh | Mtb growth | Arbovirus inh | others
Cc1ccnc(NS(=O)(=O)c2ccc(NC(=O)c3cc(-c4ccc(Br)cc4)nc4ccccc34)cc2)n1 | 0.6 | 5 | -2 | 10% | 4
N#CC1=C(SCC(=O)Nc2ccccc2)NC(=O)CC1c1ccco1 (stereo not drawn) | -0.5 | 2 | -11 | -11% | -21
CC(C)NCCOc1cccc(Br)c1 | . | -1 | -12 | 6% | 5
Cc1c(NC(=O)/C(C#N)=C/c2ccccc2)c(=O)n(-c2ccccc2)n1C | 14 | 0 | . | 2% | 9
CC(C)N1CC2(c3ccccc3)CN(C(C)C)CC(c3ccccc3)(C1)C2=O | -0.7 | -10 | -171 | -4% | 4
CC(=O)Nc1ccc(OC(=O)N(C)c2ccc(C)cc2)cc1 | 0.3 | 1 | . | . | .
CN(C)CCn1c2c(c(SCC(=O)NCc3ccccc3)nc1=O)CCC2 | 0.0 | -17 | . | . | .
N/C(=N\OS(=O)(=O)c1ccc2ccccc2c1)c1ccncc1 | 1.0 | 4 | 5 | -1% | 2
O=C(Nc1ccc2c(c1)C(=O)NC2=O)c1cccc(Cl)c1 | -1.8 | -2 | . | . | .
CCOc1ncccc1C(=O)OCC(=O)NC1CC1 | 0.8 | -6 | . | 2% | 4
CCc1ccc(-c2nc(CN3CCC(C(=O)N4CCN(c5ccccn5)CC4)CC3)c(C)o2)cc1 | . | 37 | -26 | . | -28
CN(C)C/C=C/C(O)(c1ccccc1)c1ccccc1 | 2.2 | 4 | . | 1% | .

The list goes on, overlapping the part above by four compounds.
SMILES | RecA splice inh | Mtb betalactam | YopH inh | Mtb growth | Arbovirus inh | others
O=C(Nc1ccc2c(c1)C(=O)NC2=O)c1cccc(Cl)c1 | -1.8 | -2 | . | . | .
CCOc1ncccc1C(=O)OCC(=O)NC1CC1 | 0.8 | -6 | . | 2% | 4
CCc1ccc(-c2nc(CN3CCC(C(=O)N4CCN(c5ccccn5)CC4)CC3)c(C)o2)cc1 | . | 37 | -26 | . | -28
CN(C)C/C=C/C(O)(c1ccccc1)c1ccccc1 | 2.2 | 4 | . | 1% | .
Cc1csc(NC(=O)C(CC(C)C)NS(=O)(=O)c2ccc3c(c2)oc(=O)n3C)n1 (stereo not drawn) | -1.0 | 3 | -2 | -3% | 1 | Arbovirus inh repeat=0
CC(=O)Nc1ccc(S(=O)(=O)NC(CC(=O)NCCCN2CCOCC2)C(C)C)cc1 (stereo not drawn) | 0.0 | 41 | -30 | -9% | 9
O=C1NC(c2ccccc2)(C(F)(F)F)SC2=NCCCN12 (stereo not drawn) | -0.3 | -4 | -3 | 6% | 15
CC1CCCC(C)N1/N=C/c1ccc(C#N)cc1 (stereo not drawn) | . | 6 | . | 7% | -2
Cc1nc(SCC(=O)Nc2ccc(Cl)cc2[N+](=O)[O-])nc(C)c1C | 2.3 | -4 | -34 | -11% | 2
COCCn1c(SCC(=O)NCc2ccccc2)nnc1-c1ccco1 | 2.7 | -1 | -160 | -8% | 2
Cc1ccnc(NS(=O)(=O)c2ccc(-n3cccn3)cc2)c1 | -1.7 | -1 | . | . | .
CCN1CCN(Cc2ccc(NC(=O)c3cc(NC(=O)C4=NN(c5ccccc5)C(=O)C4)cc(OC)c3)cc2C(F)(F)F)CC1 | 6.3 | 6 | . | -9% | .
COc1ccc2c(c1)CCN(C(=O)CCl)C2C1C(=O)CCCC1=O (stereo not drawn) | 4.9 | 12 | -15 | -7% | 9
CCC(=O)NC(=S)Nc1cccc(NC(=O)c2ccccc2)c1 | -2.0 | 3 | . | 15% | 0
Cc1cc(/C=C(\C#N)C(=O)NCC2CCCO2)c(C)n1-c1ccc(Cl)cc1 (stereo not drawn) | -0.9 | . | -34 | -1% | -8
C=CCNC(=S)N1CCc2[nH]c3ccccc3c2C1 | -1.6 | -9 | . | -1% | .
CC(C)CNC(=O)c1ccc(COc2ccc(Cl)cc2Cl)o1 | 3.5 | 21 | -8 | 3% | -12
Cc1ccnc(NC(=O)/C=C/c2ccccc2[N+](=O)[O-])c1 | . | 1 | . | 4% | -13
O=C(CCC1CCCN(Cc2ccc3c(c2)OCCO3)C1)NCc1ccc(F)c(F)c1 (stereo not drawn) | 3.2 | -4 | . | 6% | -7
CCN(CC(=O)Nc1ccc(NC(C)=O)cc1)c1ccc(C(F)(F)F)cn1 | -1.4 | 7 | -41 | 4% | 1
Cn1c(=O)[nH]c2nnc(-c3ccc(Cl)c(Cl)c3)nc2c1=O | 22 | 37 | . | -3% | .
COc1cccc(-c2cc3nc4c(c(N5CCC6(CC5)OCCO6)n3n2)CCC4)c1 | . | 28 | . | 4% | -17
COc1ccccc1-c1cc(C(=O)N/N=C/c2cccs2)c2ccccc2n1 | 5.4 | 15 | 15 | . | -5
CCn1cc(SCC(=O)N2CCc3ccccc32)c2ccccc21 | 2.1 | 9 | -49 | 9% | 1
CCCCn1c2nc3ccccc3nc2c2c(=O)n(C(C)CC)cnc21 (stereo not drawn) | 1.3 | -6 | -25 | 7% | -6
C/C(=N\Nc1ccccc1[N+](=O)[O-])c1ccc(N2CCOCC2)cc1 | -0.9 | -2 | . | 2% | 3
CN(C)S(=O)(=O)c1cccc(NC(=O)CSc2cccc3cccnc23)c1 | 11 | 71 | . | . | .

Compound activity: PubChem, several laboratories
